VDR inhibitor – blocks the human vitamin D receptor | Potency, µM, for the others: max response, negative = inhibition, actives largely listed as inhibitors | actives 0.93% (n = 400,000) | P11473 | VDR-SRC2-3 peptide fluorescence polarization, 2 h; active = well fitted inhibition curve with a large enough effect; inconclusive = small, poorly fitted or top-dose-only effect, or another doubt; inactive = no such curve, though single readings can be large or run the other way; also: series mostly up to about 120 µM
Target sequence (P11473 whole entry, looked up): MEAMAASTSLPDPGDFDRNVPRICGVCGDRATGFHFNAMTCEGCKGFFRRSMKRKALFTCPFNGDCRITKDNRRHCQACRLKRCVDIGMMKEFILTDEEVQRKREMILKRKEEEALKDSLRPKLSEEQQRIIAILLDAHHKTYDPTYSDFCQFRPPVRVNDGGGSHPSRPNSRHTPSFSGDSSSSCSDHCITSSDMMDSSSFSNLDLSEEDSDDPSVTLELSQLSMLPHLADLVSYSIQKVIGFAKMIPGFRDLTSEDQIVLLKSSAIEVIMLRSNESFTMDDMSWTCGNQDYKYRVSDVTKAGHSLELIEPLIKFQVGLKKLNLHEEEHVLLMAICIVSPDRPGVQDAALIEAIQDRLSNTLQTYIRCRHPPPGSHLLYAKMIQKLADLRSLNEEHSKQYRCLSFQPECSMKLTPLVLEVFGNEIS
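Compounds are added to VDR with labelled SRC2-3 coactivator peptide and held 2 h at room temperature. Inhibition of the VDR–peptide interaction is then read as a change in fluorescence polarization.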
* = called active by the depositor; ? = inconclusive; & = joins results of further samples. % is scaled to controls: 0 for no effect and ±100 for the full control effect; potency is read from the fitted curve at half-maximal effect. Some of the compounds tested, so the mix of outcomes need not match the whole.

SMILES	VDR inhibitor
COC(=O)C1CN(C(=O)COc2ccc(Cl)cc2C)c2ccccc2O1 (stereo not drawn)	-2%
O=C(CSc1nnc(Cc2cccs2)n1C1CC1)NC1CCS(=O)(=O)C1 (stereo not drawn)	-10%
Cc1ccc(CN2[C@@H]3c4ccccc4C[C@@H]3OCCS2(=O)=O)cc1	-17%
COc1ccc(-c2c(C(C)=O)c(C)nc3sc4c(=O)[nH]nnc4c23)cc1	3%
CC(C)CC(=O)NC(NC(=O)CC(C)C)c1cccc([N+](=O)[O-])c1	0%
Cc1ccccc1CSCC(=O)NC(=O)NCc1ccco1	-12%
O=C(CSc1nnc(-c2ccncc2)n1-c1ccccc1)Nc1ccc(F)cc1	14%
Cc1cc(NC(=O)CSc2nccn2-c2ccc(F)cc2)no1	3%
COc1ccc(-n2nnnc2SCC(=O)NCc2ccco2)cc1OC	9%
O=C(Cn1nc(C(=O)O)c2ccccc2c1=O)Nc1ccc(Br)cc1	-1%
COc1ccc(/C=C2/CCOC2=O)cc1	0%
O=C(COc1ccccc1)Nc1nnc(-c2ccc(Cl)s2)o1	-13%
CC(C)c1cccc(C(C)C)c1NC(=O)c1ccccc1	7%
Clc1ccccc1-c1nc(Nc2ccccc2)nc2ccc(Br)cc12	-5%
CC(C)C[C@@H](CC(=O)N[C@@H](CCCN)CC(=O)N[C@@H]1CCNC[C@H]1C(=O)N[C@H](CC(=O)N[C@@H](CCC(=O)O)CC(=O)O)Cc1ccccc1)NC(=O)[C@@H]1CCCC[C@H]1N	3%
CC(NC(=S)Nc1ccccc1C(F)(F)F)C1CC2CCC1C2 (stereo not drawn)	-14%
O=S(=O)(N1CCOCC1)N1CCN(c2ccc(F)cc2)CC1	7%
CNCCCOc1cccc(Oc2ccccc2)c1	8%
O=C(c1cccnc1)N(c1cc2sc(=O)oc2c2ccccc12)S(=O)(=O)c1ccccc1	25µM*
CC(C)Cn1c(SCC(=O)N(C)C2CCS(=O)(=O)C2)nc2cc(Cl)ccc2c1=O (stereo not drawn)	0%

Shown as labelled records: part of the list above
> CC(C)C[C@@H](CC(=O)N[C@@H](CCCN)CC(=O)N[C@@H]1CCNC[C@H]1C(=O)N[C@H](CC(=O)N[C@@H](CCC(=O)O)CC(=O)O)Cc1ccccc1)NC(=O)[C@@H]1CCCC[C@H]1N
  VDR inhibitor: 3%

> CC(NC(=S)Nc1ccccc1C(F)(F)F)C1CC2CCC1C2 (stereo not drawn)
  VDR inhibitor: -14%

> O=S(=O)(N1CCOCC1)N1CCN(c2ccc(F)cc2)CC1
  VDR inhibitor: 7%

> CNCCCOc1cccc(Oc2ccccc2)c1
  VDR inhibitor: 8%

Next section
SMILES	VDR inhibitor
COc1ccc(C(=O)/C=C/Nc2c(C)n(C)n(-c3ccccc3)c2=O)c(OC)c1	-23%
Cc1cccn2c(=O)c(C=O)c(N3CCC4(CC3)OCCO4)nc12	-4%
COC(=O)C(C)N1CCC(=O)c2ccccc2S1(=O)=O (stereo not drawn)	3%&-7%
CC1CCc2nn(CC(=O)Nc3ccccc3Cl)cc2C1 (stereo not drawn)	-5%
O=C(O)c1ccc2c(c1)S(=O)(=O)c1ccccc1C2=O	1%
COC(=O)C1=C(C)NC(=O)NC1c1ccc(-c2ccc(F)cc2)o1 (stereo not drawn)	?
O=C(NCCCCNC(=O)c1ccc(Br)s1)c1ccc(Br)s1	-3%
CN(C)S(=O)(=O)Nc1cccc(Br)c1	-7%
O=C(O)Cn1c2c(c3ccccc31)CCCC2	-11%
Cn1c(-c2sc3cc(C(F)(F)F)cnc3c2-c2cccs2)n[nH]c1=S	-1%
O=c1[nH]c2ccc([N+](=O)[O-])cc2nc1/C=C(\O)c1ccccc1	-11%
CCOCCCN1C(=O)C(=O)N(CC(=O)N2c3ccccc3NC(=O)CC2C)C1=O (stereo not drawn)	-4%
COc1cc2c(cc1OC)n(CC(=O)c1cccc(Cl)c1)c(=O)n1nc(CCn3nc(C)cc3C)nc21	-6%
O=C(NC1CCCCC1)N1CCCc2ccccc21	3%
COc1cccc(CNC(=O)CCn2c(=O)oc3ccccc32)c1	-10%
COc1ccc(/C=C2/C(=O)C(C)(C(C)C)CCC2C)cc1 (stereo not drawn)	-10%
O=C(Nc1ccc2nc(SCC(=O)N3CCCC3)sc2c1)c1cccc(Br)c1	-6%
CCN(CC)c1ccc(S(=O)(=O)N2CCCCC2)cc1NC(=O)CN1C(=O)NC2(CCCC2)C1=O	-4%
COc1cc(NC(=O)Nc2c(C)n(C)n(-c3ccccc3)c2=O)cc(OC)c1OC	12%
Oc1ccc(C[C@@H]2CNCCN2CC2CCCCC2)cc1	-21%
Oc1ccc(Br)cc1CNc1cccc2cccnc12	-13%
CC(C)COc1ccc(-c2nnc(-c3ccncc3)o2)cc1	?
O=C(C1CCCN(S(=O)(=O)c2ccc(F)cc2)C1)N1CCOCC1 (stereo not drawn)	-4%
Cn1c(O)c(C=Nc2ccc(Br)cc2)sc1=O	-6%
COc1ccc(S(=O)(=O)N2CCCCC2)cc1NC(=O)CN(Cc1ccco1)Cc1ccco1	4%
C=CCNC(=S)N1N=C(c2ccco2)CC1c1ccco1 (stereo not drawn)	6%
Cc1cc(C)n2nc(-c3ccccc3)c(-c3ccccc3)c2n1	4%
CC(C)C12CN3CC(C(C)C)(CN(C1)C3c1ccco1)C2=O (stereo not drawn)	0%
CCOc1ccc(NC(=O)N2CCC(n3nnc4cc(C)ccc43)CC2)cc1	-4%
Cc1c2cnn(-c3ccccc3)c(=O)c2c(C)n1CC(=O)NCc1ccccc1	-1%
Cc1cc(Cl)c(C)c(S(=O)(=O)N2CCN(CC(=O)N3CCOCC3)CC2)c1Cl	-13%
O=C(Nc1ccccn1)C1CCCN(c2ncnc3c2nc2n3CCCCC2)C1 (stereo not drawn)	3%
c1coc(-c2nc(-c3ccncc3)no2)c1	-12%
COc1ccccc1NC(=O)C1CCCN(c2nc(C)cc(C)n2)C1 (stereo not drawn)	16%
CCCCCCCCCSc1n[nH]c(N)n1	-2%
COc1cc(/C=N/NC(=O)Cc2ccccc2)ccc1Oc1ccc([N+](=O)[O-])cc1[N+](=O)[O-]	-11%
CCOc1ccc(C(=S)N2CCCC2)cc1OCC	-18%
CC(=O)c1c(C)[nH]c(C(=O)NNC(=O)c2ccc(Br)cc2)c1C	9%
CC(C)CCNC(=O)C(c1ccco1)N(Cc1cccs1)C(=O)Cn1nnc2ccccc21 (stereo not drawn)	-12%
CC(C)(C)NC(=O)C1CC1(c1ccccc1)c1ccccc1 (stereo not drawn)	23%

As entered above.
VDR inhibitor, `COc1ccc(S(=O)(=O)N2CCCCC2)cc1NC(=O)CN(Cc1ccco1)Cc1ccco1` → 4%
VDR inhibitor, `Cc1c2cnn(-c3ccccc3)c(=O)c2c(C)n1CC(=O)NCc1ccccc1` → -1%
VDR inhibitor, `Oc1ccc(Br)cc1CNc1cccc2cccnc12` → -13%
VDR inhibitor, `CCOc1ccc(C(=S)N2CCCC2)cc1OCC` → -18%

Returning to the listing; the five compounds before the break are reprinted first.
SMILES	VDR inhibitor
COc1cc(/C=N/NC(=O)Cc2ccccc2)ccc1Oc1ccc([N+](=O)[O-])cc1[N+](=O)[O-]	-11%
CCOc1ccc(C(=S)N2CCCC2)cc1OCC	-18%
CC(=O)c1c(C)[nH]c(C(=O)NNC(=O)c2ccc(Br)cc2)c1C	9%
CC(C)CCNC(=O)C(c1ccco1)N(Cc1cccs1)C(=O)Cn1nnc2ccccc21 (stereo not drawn)	-12%
CC(C)(C)NC(=O)C1CC1(c1ccccc1)c1ccccc1 (stereo not drawn)	23%
CCOc1ccc(N2C(=O)/C(=C/c3ccco3)N(C)C2=S)cc1	-13%
CCc1nnc(NS(=O)(=O)c2ccc(NC(=O)c3cccc(OC)c3)cc2)s1	14%
O=C(NCCCN1CCC(Cc2ccccc2)CC1)c1ccc2nc(N3CCOCC3)sc2c1	8%
COC(=O)[C@@H]1C[C@@]2(O)[C@@H](O)[C@@H](O)[C@@H](O)C[C@H]2N1CC(c1ccccc1)c1ccccc1	-22%
CCOc1ncccc1C(=O)Nc1ccc(C(=O)Nc2ccc(OC)cc2)cc1	8%
O=c1c2c3n(c(=S)nc2[nH]n1-c1ccccc1)CCCCC3	-15%
CN(C)C(=O)C(=O)c1cccn1-c1ccccc1C#N	2%
O=c1c2[nH]c3ccc(F)cc3c2ncn1CCC1=CCCCC1	10%
Cc1cccc(-c2nc(S(=O)(=O)c3ccccc3)c(N3CCN(c4ccccc4)CC3)o2)c1	4%
COc1ccc(NC(C)=O)cc1NC(=O)CN1CCN(c2ccccn2)CC1	-13%
Cc1ccc(NS(=O)(=O)c2ccc(Cl)nc2)c(C)c1	-15%
O=C(CSc1nnc(COc2ccc(F)cc2)o1)N1c2ccccc2CCc2ccccc21	-20%
Cc1ccc(O)c(Nc2nc(-c3ccccc3)nc3ccccc23)c1	-3%
O=C(NC1CCCCC1)C(c1ccccn1)N(C(=O)c1csnn1)C1CC1 (stereo not drawn)	-5%
Cc1cc(C(=O)N2CCN(Cc3ccccc3)CC2)ccc1[N+](=O)[O-]	-7%
Cc1ccc(OCC(=O)Nc2cc3nn(-c4ccccc4)nc3cc2C)cc1	-5%
CCC(=O)N1N=C(c2ccccc2)CC1c1ccc([N+](=O)[O-])cc1 (stereo not drawn)	?
COc1ccc(NC(=O)C2CCCN(S(=O)(=O)c3c(C)[nH]c(=O)[nH]c3=O)C2)c(OC)c1 (stereo not drawn)	9%
Cn1cnnc1SCC(=O)N/N=C/c1ccc(OCC(N)=O)cc1	-5%
Cc1cccc(S(=O)(=O)c2cn(C)c3cc(N4CCN(c5ccccc5)CC4)c(F)cc3c2=O)c1	14%
CN(C(=O)COC(=O)CCCN1C(=O)c2cccc3cccc(c23)C1=O)C1CCS(=O)(=O)C1 (stereo not drawn)	-18%
Cc1ccc(C)c(NC(=O)CCC(=O)NNC(=O)C(c2ccccc2)c2ccccc2)c1	-3%
O=C1CC(/C=C/c2ccc([N+](=O)[O-])cc2)=Nc2ccccc2N1	-24%
CC1c2[nH]c3ccccc3c2CCN1C(=O)Nc1ccccc1 (stereo not drawn)	10%
CCOc1ccc(-n2c(-c3ccccc3)c(C)n3c4c(=O)n(C)c(=O)n(C)c4nc23)cc1	1%
CC(CN(C)C)CN1c2ccccc2Sc2ccccc21 (stereo not drawn)	-3%&1%
COc1ccc(/C=N/Nc2ncc(C(F)(F)F)cc2Cl)cc1OC	1%
CCCCN(C(=O)C(C)Oc1ccc(Br)cc1)c1c(N)n(CC(C)C)c(=O)[nH]c1=O (stereo not drawn)	-1%
O=C(Nc1ccc2c(c1)N(C1CCCC1)C(=O)c1ccccc1S2)c1cccc(F)c1	11%
CC1(C(=O)NC2CCCCC2)Cc2ccccc2C(=O)N1Cc1ccc(F)cc1 (stereo not drawn)	-22%
O=C(O)CCSc1nc2ccccc2c(=O)[nH]1	-2%
O=C(c1ccc(=O)[nH]n1)N1CCN(S(=O)(=O)c2ccc3ccccc3c2)CC1	7%
COC(=O)c1c(NC(=O)CCl)sc(C(=O)N2CCOCC2)c1C	1%
COc1ccc(Cn2ccnc2SCC(=O)Nc2ccc3c(c2)OCCO3)cc1	13%
CC1(C)Cc2c(cnn2-c2ccc(F)cc2)C(NC(=O)CN2CCCC2=O)C1 (stereo not drawn)	0%
O=C(Nc1c(C(=O)N2CCN(c3ccccn3)CC2)oc2ccccc12)c1cccc([N+](=O)[O-])c1	-7%
CC(=O)c1c(O)cc(=O)n(-c2ccccc2)c1-c1ccc(C)cc1	-5%
O=C(COC(=O)C12CC3CC(CC(C3)C1)C2)NCCCc1ccccc1	-4%
O=C(c1cc(C(F)(F)F)cc(C(F)(F)F)c1)N1CCC2(CC1)CCN(c1ncccn1)CC2	-9%
CCOC(=O)CSc1nc2ccccc2c(=O)[nH]1	5%
COc1ccc(/C=C2\CCCC3C2=NN(C(=O)c2ccco2)C3c2ccc(OC)c(OC)c2)cc1OC (stereo not drawn)	12%
COc1cc(NC(=S)NC(=O)CC(C)C)ccc1NC(=O)c1cc2ccccc2o1	12%
Nc1ccc2c(c1)ncn2CCCn1cnc2cc(N)ccc21	-9%
COc1ccc(C)cc1NC(=O)c1oc2ccc(S(=O)(=O)N3CCCCC3)cc2c1C	6%
Cc1ccc(C)c(-n2cc(CN3CCN(C(=O)c4ncn[nH]4)CC3)c(-c3ccccc3)n2)c1	17%
O=C1Cc2cc(S(=O)(=O)Nc3ccc(OC(F)(F)F)cc3)cc3c2N1CCC3	5%
COc1cc(C(=O)N2CCCCCCC2)ccc1OC1CCN(C(C)=O)CC1	-16%
COc1ccc(CC(=O)N[C@@H]2c3cc(OC)c(OC)cc3C[C@H]2O)cc1	-10%
COc1ccc(/C(C)=N/NC(=O)CNC(=O)c2cccs2)cc1OC	8%
FC(F)Oc1ccccc1NC(=S)Nc1cccc(Cl)c1Cl	?
COc1ccc(Cl)cc1NC(=O)CSc1nc(N2CCOCC2)nc(N2CCOCC2)n1	-4%
c1ccc(-c2cc3c(NCC4COc5ccccc5O4)ncnc3s2)cc1 (stereo not drawn)	3%
O=C(Nc1ccc(-n2ccnc2P(=O)(O)c2ccccc2)cc1)c1ccccc1Br	-17%
COc1ccc(NC(=O)c2cccnc2Nc2ccccc2)cc1	17%
Cc1cnc(NC(=O)CCCSc2nc3ccccc3s2)s1	5%
CCNc1ccc(S(=O)(=O)N(C)C)cc1NCC(=O)Nc1ccccc1Cl	10%
O=C1CCCN1CCCNc1ncnc2c1[nH]c1ccccc12	-3%
COCCCNC(=O)CNC(=O)c1nn(-c2ccc(OC)c(Cl)c2)c(=O)c2ccccc12	8%
CCOC(=O)C1CCN(C(=O)c2oc3ccc(S(=O)(=O)N4CC(C)CC(C)C4)cc3c2C)CC1 (stereo not drawn)	19%
COc1cc(NC(=O)c2c(OC)cccc2OC)ccc1NC(=O)c1cc2ccccc2o1	10%
O=C1CCCc2nn(-c3ccccc3)nc21	21%
CCOC(=O)C(C)NC(=O)c1cn(-c2ccc(OC)cc2)c(=O)c2ccccc12 (stereo not drawn)	13%
COc1ccc(Br)cc1CN1CCN(c2ncccn2)CC1	1%

Printed as active in VDR inhibitor, of those listed so far:
SMILES	VDR inhibitor
O=C(c1cccnc1)N(c1cc2sc(=O)oc2c2ccccc12)S(=O)(=O)c1ccccc1	25µM*

Source: PubChem BioAssay
